RGS16-Gao HTS: RGS16-Galphao interaction regulator (human); bead-based flow cytometry RGS16-Galphao binding, fluorescence; actives lie on both sides; binding response (% of control), % at 10 µM; 0.38% of 220,000 active; AID 1441;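 active means below 25% or above 175%, edge rows of some plates excepted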;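 further: Galphao activated by GDP with aluminum fluoride before binding; 100% = wells without compound and 0% = beads without RGS; some results beyond the cut were filed as inactive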
Target sequence (O15492 whole entry, looked up): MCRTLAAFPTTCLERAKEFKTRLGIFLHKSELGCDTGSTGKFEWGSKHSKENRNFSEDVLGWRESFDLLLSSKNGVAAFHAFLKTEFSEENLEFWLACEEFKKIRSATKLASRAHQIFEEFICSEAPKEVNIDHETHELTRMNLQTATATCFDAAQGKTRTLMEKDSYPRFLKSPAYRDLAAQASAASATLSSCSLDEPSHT
Target sequence (P09471 whole entry, looked up): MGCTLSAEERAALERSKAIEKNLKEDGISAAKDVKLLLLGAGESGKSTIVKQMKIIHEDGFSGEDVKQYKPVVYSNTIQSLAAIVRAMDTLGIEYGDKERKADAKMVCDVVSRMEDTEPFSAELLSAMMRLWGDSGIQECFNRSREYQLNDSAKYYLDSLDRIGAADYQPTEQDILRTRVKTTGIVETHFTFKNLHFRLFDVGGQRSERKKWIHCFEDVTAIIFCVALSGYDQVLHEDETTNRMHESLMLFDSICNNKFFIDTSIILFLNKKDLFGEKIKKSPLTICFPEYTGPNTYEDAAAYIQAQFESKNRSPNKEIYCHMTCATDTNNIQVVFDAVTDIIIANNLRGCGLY
HSV augment: increases HSV replication in cells; HSV replication augmentation in cells, fold increase; maximum fold increase; 0.005% of 220,000 active; AID 1956;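 active means peak rise of 1.5-fold or more in the series; inconclusive means self-fluorescent or not available for retest; tested in PC3 cells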;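 further: first round at 10 µM; read as green reporter fluorescence; hits show the peak of a series up to 25 µM; 1 = signal of infected wells without compound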
GALR2 ag: activates the human galanin receptor 2; activation, %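 (tested at 5 µM)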; AID 803; GALR2-expressing cells, agonist activation read-out; 0.48% of 140,000 active;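 active means above mean plus 3 SD of all compounds, about 5% in these data, not always enough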;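 further: 0% = vehicle buffer wells and 100% = reference agonist at full effect; tested in CHO reporter cells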
Target sequence (O43603 whole entry, looked up): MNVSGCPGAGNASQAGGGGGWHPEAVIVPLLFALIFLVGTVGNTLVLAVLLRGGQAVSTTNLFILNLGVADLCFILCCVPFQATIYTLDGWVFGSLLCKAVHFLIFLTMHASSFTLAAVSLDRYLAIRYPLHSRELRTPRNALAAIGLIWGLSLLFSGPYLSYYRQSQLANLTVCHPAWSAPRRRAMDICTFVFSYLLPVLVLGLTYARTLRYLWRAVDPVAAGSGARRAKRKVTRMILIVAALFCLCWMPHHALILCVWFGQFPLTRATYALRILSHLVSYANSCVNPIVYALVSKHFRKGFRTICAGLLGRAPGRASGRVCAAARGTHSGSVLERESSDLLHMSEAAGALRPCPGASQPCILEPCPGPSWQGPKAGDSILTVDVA
Insulin prom inh: TRM-6 insulin promoter activity inhibition; TRM-6 cells (human fetal islet line), insulin promoter-eGFP reporter, imaging; reporter expression induced with tamoxifen; inhibition, % at 2 µM; 0.9% of 130,000 active; AID 1273;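 active means inhibition above the mean plus 3 SD, with well images judged a real hit on visual review, cut at about 60% in these data, passing the limit was not always enough; inconclusive means inhibition over the cutoff but images rejected on review; inactive means inhibition not above the cutoff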
PKD1 kinase inh: inhibitors of human PKD1 kinase; Q15139; PKD1 kinase fluorescence polarization assay; 0.056% of 200,000 active; inhibition, %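 (about 10 µM by stock and volumes)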;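 active means inhibition of 50% or more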;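 further: controls were vehicle for no effect and a reference inhibitor for full effect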
Insulin prom inh cell count: recorded beside Insulin prom inh, whose call it bears; normalized cell count, %; measured here: cell count, toxicity; reference of the scale not given here;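 cells exposed to compound for 48 h; stained nuclei by imaging scaled within each plate; lower means fewer cells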
HSV augment primary fold: further read-out of HSV augment, marked with its call; fold increase; compound at 10 µM; measured here: primary screen fold increase 10 uM; tested in PC3 cells;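 GFP signal in the first replicate; 1 = infected wells without compound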
The depositor's hits bear a star; i = inactive; ? = inconclusive; / = no result given.

SMILES	RGS16-Gao HTS	HSV augment	HSV augment primary fold	GALR2 ag	Insulin prom inh	Insulin prom inh cell count	PKD1 kinase inh
O=C(c1ccccc1)N1CCC2(CC1)OCCO2	76.2	i	1.19	/	/	/	/
COc1cc2c3cc1Oc1cc(ccc1O)C[C@@H]1c4c(cc(OC)c(O)c4Oc4ccc(cc4)C[C@H]3N(C)CC2)CCN1C	102.2	i	0.64	9.6*	0.0	146.9	-15.7
CCN(CC)CCCN=Cc1c(O)n(Cc2ccc(F)cc2)c(=O)[nH]c1=O	107.4	i	1.01	-0.7	-9.1	80.4	10.2
CCOC(=O)C1CCN(C=C2C(=O)N(C)C(=S)N(C)C2=O)CC1	105.8	i	1.02	-0.7	-37.2	94.6	-15.1
COC(=O)C1C2c3ccccc3OC1(C)N=c1s/c(=C/c3cnn(C)c3)c(=O)n12 (configuration not stated)	101.0	i	0.94	-0.9	/	/	-28.8
COc1ccc(-c2csc(NC(=O)COC(=O)Cc3ccccc3)n2)cc1OC	104.7	i	0.93	-0.2	-40.0	78.5	8.6
CCOC(=O)c1ccc(N2C(=O)CC(N3CC=C(c4ccc(F)cc4)CC3)C2=O)cc1 (configuration not stated)	138.6	i	0.79	-1.6	24.1	116.0	0.7
COc1ccc(OC)c(N2Cc3ccccc3C2=N)c1	97.1	i	1.05	/	-2.3	70.7	-2.3
CN1C(=O)C(=Cc2ccccc2Oc2ccc(Cl)cc2)C(=O)N(C)C1=O	104.4	i	0.71	-0.4	13.6	78.3	-8.5
Cc1cc(=O)[nH]c(CCl)n1	105.1	i	0.98	/	-33.3	113.1	-3.9
COc1ccc(C(=O)C(C)(C)NO)cc1	101.1	i	0.8	-2.2	-468.8	61.0	-14.1
CN1CCN(c2ccc([N+](=O)[O-])c(Sc3ccccn3)c2)CC1	96.2	i	1.05	/	/	/	/
Cc1cccn2c(=O)c3cc(C(=O)N4CCC5(CC4)OCCO5)n(C)c3nc12	97.2	/	/	0.4	14.3	121.5	1.6
Cc1nc2nc(C)c(CCC(=O)N3CCC4(CC3)OCCO4)c(C)n2n1	89.6	i	1.01	-3.4	/	/	-12.3
O=C1N(c2ccc(Cl)cc2)C(c2cccnc2)N2CCCN12 (configuration not stated)	99.2	i	1.04	/	18.9	85.3	-11.3
CCC(=O)c1ccc(OC(=O)N(C)c2ccccc2)cc1	98.7	i	0.94	/	/	/	2.7
CN(Cc1ccccc1)Cc1ccccc1OC(=O)N(C)C	100.2	i	1.05	-2.0	/	/	-9.1
COc1ccc(C2C(C(=O)N3CCC4(CC3)OCCO4)c3cc(OC)c(OC)cc3C(=O)N2C)cc1 (configuration not stated)	98.5	i	0.91	-0.9	0.0	86.8	0.5
CCC1(CC)C(=N)N(C)C(=O)NC1=O	110.4	i	0.89	0.2	-7.4	113.7	-5.7
Cc1noc(C)c1C(=O)N1CCC2(CC1)OCCO2	99.2	i	1.02	0.4	7.9	110.3	-5.5
Cc1[nH]c2ccccc2c1/C=N/O	104.5	i	0.61	-3.8	/	/	1.1
COc1ccc(/C=C2/C(=O)NC(=O)N(C3CCCCC3)C2=O)cc1CSc1ccccn1	99.4	i	1.12	-1.6	42.1	95.8	-1.1
CCC(=NCc1ccco1)c1c(O)n(C)c(=O)n(C)c1=O	95.9	i	1.01	/	/	/	/
Cc1ccc2c(c1)C1CN(C)CCC1N2C(=O)CCCN1C(=O)c2cccc3cccc(c23)C1=O (configuration not stated)	103.7	i	0.91	/	/	/	/
Cc1[nH]c2ccccc2c1C1=CCNCC1	102.0	i	1.2	-0.2	-50.0	96.8	0.7
CC(=O)c1c(C)n(CC2CCCO2)c2ccc(O)cc12 (configuration not stated)	102.5	i	1.15	-0.8	62.5	35.1	-6.8
Cc1ccc(S(=O)(=O)NCC2CCC(C(=O)N3CCC4(CC3)OCCO4)CC2)cc1 (configuration not stated)	94.2	i	0.93	0.0	/	/	-5.5
C[N+]12CCC(CC1)C(=C(c1ccccc1)c1ccccc1)C2	107.0	i	0.85	-1.7	12.5	99.3	2.2
COc1ccc(N=Nc2c(O)[nH]c(=S)[nH]c2=O)cc1	104.2	i	0.93	/	-25.0	133.9	-1.8
CC(NCc1ccc(Cl)c(Cl)c1)C(O)c1ccccc1 (configuration not stated)	101.2	i	0.85	-0.5	0.0	101.9	-1.4

Pulled by structure from above (two):
SMILES	RGS16-Gao HTS	HSV augment	HSV augment primary fold	GALR2 ag	Insulin prom inh	Insulin prom inh cell count	PKD1 kinase inh
COc1ccc(N=Nc2c(O)[nH]c(=S)[nH]c2=O)cc1	104.2	i	0.93	/	-25.0	133.9	-1.8
COc1ccc(/C=C2/C(=O)NC(=O)N(C3CCCCC3)C2=O)cc1CSc1ccccn1	99.4	i	1.12	-1.6	42.1	95.8	-1.1

Later entries:
SMILES	RGS16-Gao HTS	HSV augment	HSV augment primary fold	GALR2 ag	Insulin prom inh	Insulin prom inh cell count	PKD1 kinase inh
C=Cn1ccnc1P(=S)(c1nccn1C=C)C1CCCCC1	99.5	i	1.07	-1.4	-45.5	19.9	5.2
Cc1ccc(OCC(=O)N2CCN(C)CC2)c(Br)c1	92.7	i	0.94	-0.2	37.1	103.7	-7.5
N#CC12CNCC1CN=N2 (configuration not stated)	126.6	i	0.93	/	/	/	/
CCNc1nc2[nH]c(=O)c3c(c2s1)OC(N)=C(C#N)C3c1cccs1 (configuration not stated)	92.7	/	/	-2.2	/	/	-4.3
CN1CCN(c2nc(Cl)ncc2F)CC1	93.9	i	0.97	/	/	/	-0.4
CCOC(=O)C1CCCN(c2ccc([N+](=O)[O-])c3nonc23)C1 (configuration not stated)	107.5	?	/	/	/	/	29.8
CNC(C)Cc1ccccc1Sc1ccc(O)cc1 (configuration not stated)	94.3	i	0.947	-1.8	-2.6	116.8	-0.9
Cc1cccc(NC(=O)N2CCCC2)c1	103.0	i	1	/	/	/	-5.9
CN1C2CCC1CC(OC(=O)CCN1CCCC1)C2 (configuration not stated)	103.4	i	1.23	-1.3	-4.3	117.5	-4.8
CCC(=Nc1cccc(C(F)(F)F)c1)c1c(O)n(C)c(=O)n(C)c1=O	100.8	i	0.97	/	/	/	/
C/C(=N\NC(=O)c1ccccc1)c1c(O)n(Cc2ccccc2)c(=O)[nH]c1=O	94.5	i	0.8	/	/	/	/
CNC(=O)Oc1ccc2ncccc2c1	112.9	i	0.97	-1.4	21.4	123.5	-11.4
CNS(=O)(=O)c1ccc(N=Cc2c(O)n(-c3ccc(C)cc3)c(=O)[nH]c2=O)cc1	105.7	i	1	/	/	/	/
O=[N+]([O-])c1ccc(NCc2ccccc2)c2nonc12	104.6	?	/	/	/	/	37.5
Cc1ccc(-c2cc(-c3ccc(C)cc3)[n+](C)o2)cc1	105.7	i	0.94	-1.4	78.6*	83.0*	-7.6
C/C(=N\N1CCCCCC1)c1c(O)n(C)c(=O)n(C)c1=O	97.8	i	0.89	/	/	/	/
Cc1cc(/C=C2\C(=O)NC(=O)N(Cc3ccccc3Cl)C2=O)c(C)n1-c1ccc(C(=O)O)cc1	111.0	i	1.26	/	/	/	-0.3
CC(=O)NC1C(OC(=O)Cc2ccccc2)OC(COC(C)=O)C(OC(C)=O)C1OC(C)=O (configuration not stated)	97.5	i	0.88	/	/	/	4.1
O=C1NC(=O)C(C(CC(=O)c2ccccc2)c2ccccc2)C(=O)N1 (configuration not stated)	111.1	i	0.95	/	7.1	67.5	-1.9
NC1=C([N+](=O)[O-])C(c2ccc3c(c2)OCO3)c2c(c3ccccc3oc2=O)O1 (configuration not stated)	108.8	i	0.92	/	/	/	/

An excerpt from above in order of molar mass, rising:
SMILES	RGS16-Gao HTS	HSV augment	HSV augment primary fold	GALR2 ag	Insulin prom inh	Insulin prom inh cell count	PKD1 kinase inh
CNC(=O)Oc1ccc2ncccc2c1	112.9	i	0.97	-1.4	21.4	123.5	-11.4
Cc1cccc(NC(=O)N2CCCC2)c1	103.0	i	1	/	/	/	-5.9
CN1CCN(c2nc(Cl)ncc2F)CC1	93.9	i	0.97	/	/	/	-0.4
Cc1ccc(-c2cc(-c3ccc(C)cc3)[n+](C)o2)cc1	105.7	i	0.94	-1.4	78.6*	83.0*	-7.6
CN1C2CCC1CC(OC(=O)CCN1CCCC1)C2 (configuration not stated)	103.4	i	1.23	-1.3	-4.3	117.5	-4.8
CNC(C)Cc1ccccc1Sc1ccc(O)cc1 (configuration not stated)	94.3	i	0.947	-1.8	-2.6	116.8	-0.9
CCOC(=O)C1CCCN(c2ccc([N+](=O)[O-])c3nonc23)C1 (configuration not stated)	107.5	?	/	/	/	/	29.8
O=C1NC(=O)C(C(CC(=O)c2ccccc2)c2ccccc2)C(=O)N1 (configuration not stated)	111.1	i	0.95	/	7.1	67.5	-1.9
CCC(=Nc1cccc(C(F)(F)F)c1)c1c(O)n(C)c(=O)n(C)c1=O	100.8	i	0.97	/	/	/	/
C/C(=N\NC(=O)c1ccccc1)c1c(O)n(Cc2ccccc2)c(=O)[nH]c1=O	94.5	i	0.8	/	/	/	/
NC1=C([N+](=O)[O-])C(c2ccc3c(c2)OCO3)c2c(c3ccccc3oc2=O)O1 (configuration not stated)	108.8	i	0.92	/	/	/	/
CNS(=O)(=O)c1ccc(N=Cc2c(O)n(-c3ccc(C)cc3)c(=O)[nH]c2=O)cc1	105.7	i	1	/	/	/	/
CC(=O)NC1C(OC(=O)Cc2ccccc2)OC(COC(C)=O)C(OC(C)=O)C1OC(C)=O (configuration not stated)	97.5	i	0.88	/	/	/	4.1
Cc1cc(/C=C2\C(=O)NC(=O)N(Cc3ccccc3Cl)C2=O)c(C)n1-c1ccc(C(=O)O)cc1	111.0	i	1.26	/	/	/	-0.3

Going on with the list:
SMILES	RGS16-Gao HTS	HSV augment	HSV augment primary fold	GALR2 ag	Insulin prom inh	Insulin prom inh cell count	PKD1 kinase inh
Cc1ccc(N2C(=O)NC(=O)/C(=C\c3ccoc3)C2=O)cc1	90.3	?	/	/	/	/	1.0
c1csc(CN2CCNCC2)c1	104.5	i	1.03	/	18.2	142.9	-3.0
CCOP(=O)(OCC)C(NC(=O)C(C)C)C(Cl)(Cl)Cl (configuration not stated)	105.2	i	0.89	0.0	10.5	100.0	2.0
Cn1c(O)c(C=NC2CCCCC2)c(=O)[nH]c1=S	104.0	i	1.02	/	/	/	-0.6
COc1cc(CN2CCN(c3cc(C)ccc3C)CC2)ccc1O	100.7	i	1.03	48.5*	-48.4	133.2	-13.8
CCOP1(=S)Oc2cc3c(cc2C(C(=O)OC)(C(F)(F)F)O1)OCO3 (configuration not stated)	97.9	i	1.01	-1.7	-45.2	123.5	2.6
O=C1NC(=O)N(CCc2ccc(F)cc2)C(=O)/C1=C\C=C\c1ccccc1	94.2	i	0.63	/	-20.0	53.3	0.2
O=C1CCN(C(=O)Cc2ccccc2[N+](=O)[O-])CC1	104.1	i	1.09	/	-27.3	117.5	-4.3
C=C1C(=O)O[C@@H]2C[C@@H](C)[C@H]3C=CC(=O)[C@]3(O)C[C@@H]12	98.9	i	1.02	/	/	/	/
O=C1NC(=S)NC(=O)C12C(c1ccc(F)cc1)NC(=S)NC2c1ccc(F)cc1 (configuration not stated)	171.6	i	0.91	-2.2	-29.2	112.1	-3.6
C(CCc1nn[nH]n1)CCc1nn[nH]n1	101.7	/	/	-0.5	25.0	115.7	-11.4
COc1ccc(/C=C2/C(=O)NC(=S)N(C3CC3)C2=O)cc1CN1C(=O)c2ccccc2C1=O	118.7	i	1.02	0.2	/	/	-5.7
CCC(C)N1C(=O)NC(=O)C2(Cc3c(ccc4ccccc34)N(C)C2)C1=O (configuration not stated)	100.0	i	0.9	0.3	/	/	2.1
Cc1oc(-c2ccccc2)nc1CN1C(=O)CN=C(c2ccccc2)c2ccccc21	117.3	/	/	-0.6	-30.0	57.8	-0.5
Cc1cccc(N2C(=O)/C(=C/c3ccc(CN(CCC#N)S(C)(=O)=O)o3)C(=O)NC2=S)c1	93.2	i	1.12	-1.9	6.7	106.5	0.0
COc1ccccc1C1=NCc2nnc(C)n2-c2ccc(Cl)cc21	99.3	i	0.98	-1.3	43.6	81.5	-3.2
COc1ccc(C2=NCC(=S)Nc3ccc(Cl)cc32)cc1Cl	82.6	i	1.1	/	/	/	-0.7
CCC(COC(=O)NC)NC(=O)Oc1cccc(C)c1 (configuration not stated)	95.5	i	1.02	-1.4	0.0	83.8	-6.0
CC(C)(C)N1Cc2ccccc2C1=N	102.0	i	0.85	-1.9	17.4	108.3	-5.6
CCCCCCOc1ccc(CN2CCN(CC)CC2)cc1	99.9	i	0.82	-2.9	-6.5	81.0	-5.2
CCCN1C2CCCC1CC(NC(C)=O)C2 (configuration not stated)	98.7	i	0.85	-1.3	-50.0	83.4	2.4
O=C(Nc1cccc(OC(=O)N2CCOCC2)c1)N1CCOCC1	102.1	i	0.83	-2.9	-63.6	109.0	-15.9

Screening results deposited in PubChem by several laboratories.

Only part of the results is shown; rates above refer to the full screens.
